# Measles inh – inhibitors of measles virus growth in cells, primary screen, measles RdRp inhibitor project, cell-based, single point, HTS | infected Vero cells, GFP fluorescence, 64 h; stronger effect = lower value | z-score (test concentration not listed) | hit rate 0.1% among 33,000;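 active = z-score under -3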;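 note: score is relative to mean and SD of the compound wells of a plate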
# An asterisk follows results filed as active. Not all compounds are listed; rates above refer to the full screens.
Cc1ccc(-c2csc3ncnc(Nc4cccc(C(=O)O)c4)c23)cc1
  Measles inh = -0.1

CS(=O)(=O)c1nc(-c2ccccc2)cc(C(F)(F)F)n1
  Measles inh = 0.73

CCOC(=O)c1ccccc1NC(=O)Cn1c(=O)n(-c2cc(C)cc(C)c2)c(=O)c2sccc21
  Measles inh = -0.98

COC(=O)C1=CN(CCOC23CC4CC(CC(C4)C2)C3)C=C(C(=O)OC)C1c1ccc2c(c1)OCO2
  Measles inh = 0.62

O=C(CCN1N=C(c2ccccc2)CCC1=O)NCCN1CCOCC1
  Measles inh = -1.4

O=C(Nc1ccccc1Cl)C1CC(=O)N(c2ccccc2F)C1 (configuration not stated)
  Measles inh = -0.2

O=C(CSc1nc2ccsc2c(=O)n1-c1ccccc1)NCc1ccco1
  Measles inh = -0.47

CCOC(=O)c1c(NC(=O)c2ccccc2F)sc2c1CCC(C)C2 (configuration not stated)
  Measles inh = -1.7

O=C(NC1CCCCCCC1)c1ccc2nc3[nH]c4ccccc4c3nc2c1
  Measles inh = 0.29

CCOc1cccc(C2CC(c3ccc(Cl)cc3)=NC(c3ccccc3OC)N2)c1O (configuration not stated)
  Measles inh = -1.2

CN(C)c1ccc(C2C3=C(CC(C)(C)CC3=O)Nc3ccccc3N2C(=O)C2CC2)cc1 (configuration not stated)
  Measles inh = -0.4

Cc1cc(C)nc(NC(=O)c2cc(-c3ccc(Br)cc3)nc3ccccc23)c1
  Measles inh = 1.2

CCOC(=O)CSc1nnc(-c2ccncc2)n1-c1ccccc1
  Measles inh = -1.8

CCOC(=O)CC(NC(=O)c1ccc(C)c([N+](=O)[O-])c1)c1ccc(OC)cc1 (configuration not stated)
  Measles inh = -0.88

O=C(NCc1ccccc1Cl)c1ccc2c(=O)n(Cc3ccco3)c(=O)[nH]c2c1
  Measles inh = -0.2

CCOC(=O)C1CCCN(S(=O)(=O)c2ccc3c(c2)CC(C)N3C(C)=O)C1 (configuration not stated)
  Measles inh = 0.14

CC1CN(C2CCN(C(=O)COc3ccccc3)CC2)CC(C)O1 (configuration not stated)
  Measles inh = -0.32

CN1C(=O)CC(C(=O)Nc2ccccc2F)SC1=Nc1ccc(Br)cc1 (configuration not stated)
  Measles inh = 1.4

CC1C(c2ccccc2)NC(c2ccccc2)C(C)C1O (configuration not stated)
  Measles inh = -0.28

Cc1ccn2cc(-c3ccc(S(=O)(=O)N4CCOCC4)cc3)nc2c1
  Measles inh = -0.17

CCN(C(=O)c1nn(-c2ccc(C)cc2)c(=O)c2c1c1ccccc1n2C)c1ccc(F)cc1
  Measles inh = 1.4

CCCCNC(=O)C1CCN(c2nc3ccccc3o2)CC1
  Measles inh = 0.19

COc1ccc(Cl)cc1NC(=O)c1cnn2c(C(F)(F)F)cc(-c3ccc(C)cc3)nc12
  Measles inh = 0.16

CCOC(=O)c1[nH]c2ccc(F)cc2c1NC(=O)CN1CCCCC1
  Measles inh = -2.2

CCOc1ccccc1NC(=O)CCN1CCN(S(=O)(=O)c2ccc(Br)cc2)CC1
  Measles inh = 1.4

OC1(C#CBr)CCCCC1
  Measles inh = -0.35

CCOc1ccccc1CN1CCC(N2CCOCC2)CC1
  Measles inh = -0.52

O=C(Nc1ccc2c(c1)OCO2)C12CC3CC(CC(C3)C1)C2
  Measles inh = -0.28

CCc1c(C)sc(NC(=O)c2ccc(Cn3nc(C)c(Cl)c3C)o2)c1C(N)=O
  Measles inh = -1.3

CCCC(=O)N(c1ccc2oc(C)c(C(C)=O)c2c1)S(=O)(=O)c1ccc(C)c([N+](=O)[O-])c1
  Measles inh = -0.14

CCCOCCOC(=O)C1=C(C)NC2=C(C(=O)CC(C)(C)C2)C1c1ccc(O)cc1 (configuration not stated)
  Measles inh = 0.35

Cc1cccc(CCNC(=O)c2ccc3c(=O)n(Cc4ccc5c(c4)OCO5)c(=O)[nH]c3c2)c1
  Measles inh = -0.17

O=C(Nc1ccccc1[N+](=O)[O-])c1cccc(F)c1
  Measles inh = -0.05

CCN(CC)c1ccc(C(=O)O)cc1
  Measles inh = -0.1

COc1ccc(N2CCN(C(=O)Cc3c(C(=O)O)[nH]c4ccc(Cl)cc34)CC2)cc1
  Measles inh = -0.46

COc1ccc(Cl)cc1NC(=O)c1c(O)c2ccccc2n(C)c1=O
  Measles inh = -0.7

N#Cc1ccc(N2C(=O)C3CCCCC3C2=O)cc1 (configuration not stated)
  Measles inh = 0.88

Cc1csc(-c2c(C(F)(F)F)oc3cc(O)c(C)cc3c2=O)n1
  Measles inh = 0.05

CCOC(=O)C(NS(=O)(=O)c1ccc2ccccc2c1)C(O)c1ccccc1 (configuration not stated)
  Measles inh = -2.9

C=CCn1c(SCC(=O)OCC)nc2c(c1=O)C1(CCCC1)Cc1ccccc1-2
  Measles inh = 0.32

CCCCCOC(=O)CSc1nc(N)c2c3c(sc2n1)CCCC3
  Measles inh = 2.3

COc1cc(Br)c(C2C(C(=O)OC3CCCCC3)=C(C)NC3=C2C(=O)CC(C)(C)C3)cc1OC (configuration not stated)
  Measles inh = -1.7

CN1CCN(c2ccc([N+](=O)[O-])cc2S(=O)(=O)N2CCCC2)CC1
  Measles inh = 0.84

Cc1cc(=O)oc2c1c(-c1ccccc1)nn2-c1ccc(Cl)c(C(=O)O)c1
  Measles inh = -0.12

CSc1nc(-c2ccco2)nc2c1c(=O)n(C)c(=O)n2C
  Measles inh = 0.32

CN(C)C(=O)c1cccc2c1NC(c1ccc(Br)cc1)C1CC=CC21 (configuration not stated)
  Measles inh = 1.5

NC1=NC(=O)CC(C(=O)Nc2cc(C(F)(F)F)ccc2Cl)S1 (configuration not stated)
  Measles inh = -0.34

CCCn1c(C(C)NC(=O)CC)nc2ccccc21 (configuration not stated)
  Measles inh = 0.05

Cc1ccccc1Cn1c(CCCNC(=O)C(C)(C)C)nc2ccccc21
  Measles inh = -0.68

N#Cc1c(NC(=O)CCCN2C(=O)c3ccccc3C2=O)sc2c1CCCC2
  Measles inh = 0.79

CC(Sc1nc2ccc(Br)cc2[nH]1)C(=O)O (configuration not stated)
  Measles inh = -0.13

Cc1cc(Br)ccc1NC(=O)CCC(=O)Nc1ccc2nc(N3CCCCC3)cc(C)c2c1
  Measles inh = -1

Cc1ccc(S(=O)(=O)NC(=O)NCCc2ccc(S(N)(=O)=O)cc2)cc1
  Measles inh = -0.07

COc1ccc(C(=O)COC(=O)c2ccc(N3C(=O)C4CC=CC(C)C4C3=O)cc2)cc1 (configuration not stated)
  Measles inh = 0.24

O=C(Nc1ccc2sccc2c1)c1ccc(S(=O)(=O)N2CCCc3ccccc32)cc1
  Measles inh = 0.29

COc1ccc(CCNC(=O)Cn2c(=S)[nH]c3ncccc3c2=O)cc1OC
  Measles inh = 0.74

O=C(CCS(=O)(=O)C(Cl)Cl)OCc1cccc(Oc2ccccc2)c1
  Measles inh = -0.79

C=CCN(C(=O)CCS(=O)(=O)c1ccc(Br)cc1)c1ccccc1
  Measles inh = 0.5

Cc1c(C(=O)Nc2ccccc2F)sc2ncn(CC(=O)N3CC(C)CC(C)C3)c(=O)c12 (configuration not stated)
  Measles inh = 0.75

CCOc1cc2[nH]c(=O)n(Cc3ccc(C(=O)NC(C)C)cc3)c(=O)c2cc1OCC
  Measles inh = 0.76

CCN1C(=O)C(O)(CC(=O)c2ccc(C(C)C)cc2)c2cc(Br)ccc21 (configuration not stated)
  Measles inh = 0.57

Cc1sc2ncn(Cc3ccc(C(C)(C)C)cc3)c(=O)c2c1C
  Measles inh = 0.09

CCN(c1ccc2c(c1)OCO2)S(=O)(=O)c1cc(Br)cc2c1N(C(C)=O)CC2
  Measles inh = -0.8

C=CCN1C(C(=O)c2ccccc2)=C(NC(=O)c2ccc(C)cc2)c2ccccc2S1(=O)=O
  Measles inh = -0.52

Cc1cc2cc(CCNC(=O)C3c4ccccc4Oc4ccccc43)c(=O)[nH]c2cc1C
  Measles inh = 0.13

COC(=O)c1ccc(C(=O)OC)c(NC(=O)c2ccc(OC(C)=O)cc2)c1
  Measles inh = 1.7

Cc1ccc(NC(=O)COc2ccc([N+](=O)[O-])cc2)c(Br)c1
  Measles inh = -0.1

CNC(=O)CC(NS(=O)(=O)c1ccc(Br)cc1)c1ccc(OC)cc1 (configuration not stated)
  Measles inh = -0.58

CCSc1oc(-c2cccs2)nc1S(=O)(=O)c1ccc(Cl)cc1
  Measles inh = 0.24

COc1ccc(OCCNc2ccc(C(F)(F)F)cc2[N+](=O)[O-])cc1
  Measles inh = 0.64

CSC1=NC2(CCCCCC2)Cc2ccccc21
  Measles inh = 0.45

Cc1cccc(NC(=O)CCn2nc(-c3ccc(Cl)cc3)c3ccccc3c2=O)c1
  Measles inh = -0.58

CC1(C)C(=O)C2(CCCCC2)C(=O)OC1c1ccc(F)cc1 (configuration not stated)
  Measles inh = -0.28

COc1cc(C(C#N)N2N=C(C)CC2(C)C)ccc1O (configuration not stated)
  Measles inh = 1.7

C=CCN(CC=C)S(=O)(=O)c1ccc(C(=O)Nc2nc3c(s2)CCc2ccccc2-3)cc1
  Measles inh = -0.62

O=C(c1oc(=O)c2ccccc2c1-c1ccccc1)N1CCc2ccccc21
  Measles inh = 0.81

Cc1ccc(N=c2oc3ccc(Br)cc3cc2C(=O)Nc2nccs2)cc1
  Measles inh = 0.02

O=C(Nc1ccc2oc(Cc3ccc(Cl)cc3)nc2c1)c1cccc(Cl)c1
  Measles inh = -0.49

COc1ccc(C2CC(=O)C3=C(C2)NC(C)=C(C(=O)OC(C)C)C3c2ccc(OC)cc2OC)cc1 (configuration not stated)
  Measles inh = -0.29

COC(=O)c1ccc(C2C(C(=O)OCC3CCCO3)=C(C)NC3=C2C(=O)CC(C)(C)C3)cc1 (configuration not stated)
  Measles inh = 0.13

# Pulled by structure from above:
CCOC(=O)c1[nH]c2ccc(F)cc2c1NC(=O)CN1CCCCC1
  Measles inh = -2.2

COc1cc(C(C#N)N2N=C(C)CC2(C)C)ccc1O (configuration not stated)
  Measles inh = 1.7

CSc1nc(-c2ccco2)nc2c1c(=O)n(C)c(=O)n2C
  Measles inh = 0.32

CCCCNC(=O)C1CCN(c2nc3ccccc3o2)CC1
  Measles inh = 0.19

COC(=O)c1ccc(C2C(C(=O)OCC3CCCO3)=C(C)NC3=C2C(=O)CC(C)(C)C3)cc1 (configuration not stated)
  Measles inh = 0.13

# Next part:
CC(=O)Nc1ccc(Br)cc1C(=O)C(=O)Nc1cccc(C(=O)N2CCOCC2)c1
  Measles inh = -0.44

O=C(O)CN1C(=O)NC2NC(=O)NC21 (configuration not stated)
  Measles inh = 0.03

CC1(C)CC(=O)N(CC(=O)NC2CCCc3ccccc32)c2ccccc2S1 (configuration not stated)
  Measles inh = 0.8

COc1ccc2c(c1)CCC1=C2NC(=S)NC1c1cccc(F)c1 (configuration not stated)
  Measles inh = -0.01

O=C(Nc1ccccc1F)c1ccc(S(=O)(=O)N2CCCc3ccccc32)cc1
  Measles inh = 0.19

Cc1ccc(S(=O)(=O)Nc2ccc(O)c(Br)c2)cc1
  Measles inh = -1.3

Cc1ccc(Cl)cc1NC(=O)C(NS(=O)(=O)c1cccs1)c1ccccc1 (configuration not stated)
  Measles inh = 0.46

Cc1cccc(C(=O)Nc2ccc(C)c(F)c2)c1
  Measles inh = -1.4

CCC(C)OC(=O)C1=C(C)NC(=O)NC1c1ccccc1OCc1ccccc1 (configuration not stated)
  Measles inh = -1

CCOc1ccc(Nc2ccc(N3C(=O)C4CCCCC4C3=O)cc2[N+](=O)[O-])cc1 (configuration not stated)
  Measles inh = -1.7

COc1ccc2nc(N3CCCC(C(=O)NCCc4ccccc4)C3)sc2c1 (configuration not stated)
  Measles inh = 1.6

CC(=O)OC1=NN=C(OC(C)=O)C12CC=C(C)CC2c1ccc([N+](=O)[O-])cc1 (configuration not stated)
  Measles inh = 1.6

Cc1cc(Nc2ccc(O)cc2)c2cc(Cl)ccc2n1
  Measles inh = -0.12

Cc1ccn2c(Nc3ccc4c(c3)OCCO4)c(-c3ccc(C)s3)nc2c1
  Measles inh = -0.94

COC(=O)C(C)Oc1ccc2cc(-c3nc4ccccc4s3)c(=O)oc2c1 (configuration not stated)
  Measles inh = -0.11

COc1ccc(Br)cc1C1C(C(=O)OC2CCCCC2)=C(C)Nc2ncnn21 (configuration not stated)
  Measles inh = -0.04

O=c1c2sccc2nc(SCc2ccc([N+](=O)[O-])cc2)n1Cc1ccccn1
  Measles inh = -0.28

CCN(CC)C(=O)Cn1cnc2sc(C(=O)Nc3ccc(C)cc3)c(C)c2c1=O
  Measles inh = 0.02

O=C(c1c[nH]c2ccc(S(=O)(=O)Nc3ccc4c(c3)OCCO4)cc2c1=O)N1CCCC1
  Measles inh = 0.19

CCOc1ccc(Nc2nc3c(c(=O)n(C)c(=O)n3C)n2Cc2ccccc2)cc1
  Measles inh = -1.4

Cc1ccc(Cl)cc1N1CCN(C(=O)CCCCCn2c(=O)[nH]c3ccsc3c2=O)CC1
  Measles inh = -0.91

Cn1c(=O)oc2cc(S(=O)(=O)N3CCCc4ccccc43)ccc21
  Measles inh = -0.02

CC1=CC(C)(C)N(C(=O)CSc2nncn2C)c2ccccc21
  Measles inh = -0.01

Cc1nc2sccn2c1-c1csc(Nc2ccc(Cl)cc2)n1
  Measles inh = -0.78

Cc1ccccc1N=Cc1ccco1
  Measles inh = 1.8

CCOCCn1cnc2sc(C(=O)Nc3ccc(C(F)(F)F)cc3)c(C)c2c1=O
  Measles inh = -0.63

Cc1cc2c(=O)n(CC(=O)O)cnc2s1
  Measles inh = 0.66

CC1CCc2c(sc(NC(=O)c3cccc(S(=O)(=O)Nc4cccc(C(=O)O)c4)c3)c2C#N)C1 (configuration not stated)
  Measles inh = 0.01

C=CCOc1nc2c(c(=O)n(Cc3ccc(Br)cc3)c(=O)n2C)n1C
  Measles inh = -0.67

O=C(CSc1nnc2c(n1)-c1cccc3cccc-2c13)Nc1ccc(Cl)c(C(=O)O)c1
  Measles inh = 0.02

CC(C)CN1C(=O)NC(NC(=O)c2ccco2)(C(F)(F)F)C1=O (configuration not stated)
  Measles inh = 1

COc1ccc(N2C(=O)c3ccccc3NC2c2ccc(OCC(C)C)cc2)cc1 (configuration not stated)
  Measles inh = 0.96

O=C(Cn1nc(-c2ccccc2)ccc1=O)NCc1ccc(F)cc1
  Measles inh = -0.42

CC(C)COc1ccc2c(c1)c1c3n2CCNC3CCC1 (configuration not stated)
  Measles inh = -1.5

COC(=O)C(CCSC)NC(=O)c1cc2c(n(-c3ccc(C)cc3)c1=O)CC(C)(C)CC2=O (configuration not stated)
  Measles inh = 0.59

Cc1ccccc1NC(=O)CCNS(=O)(=O)c1ccc(Br)s1
  Measles inh = -0.2

# High-throughput results from PubChem.
